From PubChem BioAssay
HNF4A DNA FP: change in binding of human HNF4A to DNA, primary screen, biochemical, fluorescence polarization, FITC-DNA | activity change, % at 10 µM | Hepatocyte nuclear factor 4-alpha (Homo sapiens), P41235 | AID 1224865, 2016 | 1 h | 360,000 tested, 0.3% active; in the data active means activity change above about 30%, passing the limit was not always enough;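 further: controls were the assay level and a saturating level of protein; the project sought stronger binding though the title names inhibitors; some compounds called inactive have numbers as strong as hits; positive values seem to mean higher polarization but the record does not say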
Vif A3G: inhibitors of Vif binding to APOBEC3G peptide, primary screen, biochemical, TR-FRET, GST-Vif 1-94, biotin-A3G peptide, dose response retest (AID 1117319); TR-FRET GST-Vif / biotin-A3G peptide binding; higher % means a stronger effect; test concentration not given here; strong numbers were not always called active; Virion infectivity factor (Human immunodeficiency virus type 1 group M subtype B (isolate …; 260,000 tested, 0.57% active; one-dose inhibition, %; IC50 in µM for titrated hits;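 active means above the screen mean plus three standard deviations and confirmed in dose response; inconclusive means results disagree or hit not tested in dose response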;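 further: Vif residues 1-94 fused to GST binding biotinylated APOBEC3G peptide 110-148; 0% = full assay without inhibitor and 100% = GST in place of GST-Vif; retest series ran down from 100 µM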
RanGTP-Impb inh: inhibitors of RanGTP-importin-beta interaction, primary screen, biochemical, FRET, CFP-Ran, YFP-importin-beta, homogeneous | AID 2216, 2009 | Ran GTPase (GTP-bound) - importin-beta complex | cell-free CFP-Ran/YFP-importin-beta FRET ratio | inhibition, % (test concentration not listed) | 300,000 tested, 1.1% active;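 active means most replicates above 15%; inconclusive means exactly half above 15%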;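 further: 0% = DMSO wells and 100% = Ran loaded with GDP instead of GTP; wells of about 40 µL received 100 nL stock; the first replicate is given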
LANA-H2B inh: blockers of LANA interaction with H2A/H2B – biochemical, FP readout, HTS, primary screen. Protein LANA1 (Human herpesvirus 8 type P (isolate GK18)), Q9QR71. cell-free LANA-H2A/H2B peptide, fluorescence polarization. inhibition, % (concentration not given with the values). 320,000 tested, 0.6% active. AID 2629, 2010; in the data active means inhibition mostly above about 10%, no sharp cut-off; inactive means mostly below about 6.7%;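 further: stock transfer was 7.5 nL into about 10 µL; 0% = median of vehicle wells and 100% = median of positive control wells; one replicate is shown; the record names a cut of 25% in any replicate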
Calb FLC: C. albicans growth inhibition with fluconazole, primary screen, CaCi-2 strain, Alamar Blue fluorescence | AID 1979, 2009 | C. albicans CaCi-2 (fluconazole-resistant clinical isolate) + fluconazole, 48 h | growth inhibition, % (concentration not given with the values) | 300,000 tested, 0.57% active;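 active means most replicates above 75%; inconclusive means exactly half above 75%; inactive means most below 75%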;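 further: all wells also contain fluconazole at 8 µg/ml as a sub-toxic cotreatment; 0% = median of DMSO wells and 100% = median of geldanamycin control wells; wells of about 8 µL received 7.5 nL stock; the first replicate is given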
B2AR ag: beta2AR agonists driving receptor internalization, primary screen, cell-based, FAP fluorogen, flow cytometry; response, % (test concentration not listed); Am2.2-beta2AR cells; reference of the scale not given here; 340,000 tested, 0.43% active; Beta-2 adrenergic receptor (Homo sapiens), P07550;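 active means response above a set limit, near 3 SD of response in nonfluorescent compounds, cut at about 42% in these data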;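 further: stock transfer was 100 nL into about 11 µL; a reference agonist was the positive control; negative values mostly stem from fluorescent compounds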
Target sequence (P07550 whole entry, looked up): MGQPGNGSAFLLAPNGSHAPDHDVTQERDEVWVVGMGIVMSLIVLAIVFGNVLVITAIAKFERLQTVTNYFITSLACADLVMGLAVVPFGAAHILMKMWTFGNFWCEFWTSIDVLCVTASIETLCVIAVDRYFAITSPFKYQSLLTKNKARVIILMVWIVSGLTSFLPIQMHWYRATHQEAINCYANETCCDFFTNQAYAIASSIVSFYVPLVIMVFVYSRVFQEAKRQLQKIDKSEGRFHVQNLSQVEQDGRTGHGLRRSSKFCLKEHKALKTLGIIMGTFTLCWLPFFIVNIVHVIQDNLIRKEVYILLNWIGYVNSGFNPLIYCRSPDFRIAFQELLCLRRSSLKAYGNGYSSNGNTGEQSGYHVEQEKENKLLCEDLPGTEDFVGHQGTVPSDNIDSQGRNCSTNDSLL
ALR inh: inhibitors of human ALR sulfhydryl oxidase, primary screen, biochemical, H2O2 detection, HRP-luminol luminescence, single point. purified ALR, DTT oxidation. inhibition, % (no concentration beside the values). 290,000 tested, 3.8% active;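 active means mean and each replicate at 75% or more; inconclusive means only one of the two met; inactive means neither met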;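 further: stock transfer was 7.5 nL into about 7.5 µL; 0% = neutral wells and 100% = wells with inactivated enzyme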
Target sequence (P55789 whole entry, looked up): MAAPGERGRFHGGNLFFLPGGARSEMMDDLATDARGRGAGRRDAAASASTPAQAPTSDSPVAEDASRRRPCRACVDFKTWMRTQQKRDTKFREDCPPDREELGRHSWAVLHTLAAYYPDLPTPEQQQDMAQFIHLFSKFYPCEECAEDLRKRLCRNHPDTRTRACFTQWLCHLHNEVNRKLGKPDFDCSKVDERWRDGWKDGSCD
Numbers without * were called inactive; ? = inconclusive; · = not tested or not shown; & = joins results of further samples.

Below each compound: HNF4A DNA FP	Vif A3G	RanGTP-Impb inh	LANA-H2B inh	Calb FLC	B2AR ag	ALR inh
CC1CC(C)CN(CCCNC(=O)CCC(=O)N2CC(C)Oc3ccccc32)C1 (stereo not given)
 : 1.0	·	?	-1.9	18	6	-9
CC(=O)c1cc(C(=O)Nc2ccc3ccccc3c2)c(C)o1
 : 1.0	·	-0.7	-2.0	-4	6	-10
COC(=O)C1CCN(c2nc3ccccc3nc2C(C#N)C(=O)OCC(C)C)CC1 (stereo not given)
 : -4.5	-1%	-9.2	-2.7	28	-5	-7
COc1ccc(-c2ocnc2C(=O)N2CCN(C(=O)C(c3ccccc3)c3ccccc3)CC2)cc1
 : 1.2	·	1.6	-6.1	-3	-1	·
Cc1ccc(CN2C(=O)C(C)Nc3ncnc(N4CCN(c5ccccn5)CC4)c32)cc1 (stereo not given)
 : 12	·	?	3.5	-1	0	-2
COC(=O)[C@@H]1CCCN1C(=O)[C@@H](NC(=O)OC(C)(C)C)C(C)C
 : 5.2	·	-1.5	3.4	-5	-2	-8
CC(NS(=O)(=O)CCNC(=O)c1ccccc1)c1ccccc1 (stereo not given)
 : 1.8	1%	-1.8	0.2	2	-7	-3
Cc1cccc(/C=N/NC(=O)CC(=O)NCCc2ccccc2)c1
 : 5.7	·	4.3	2.3	3	-3	-10
COc1cccc(C(=O)NN2CC(O)=C(c3nc4ccccc4n3C)C2=N)c1
 : ·	·	0.9	-1.1	-20	·	-25
CCOc1ccccc1N1CCN(C(=O)CC(C)C)CC1
 : 3.3	·	1.1	-11	13	4	10
CCC(C)N1C(=O)CCC1C(=O)O (stereo not given)
 : 0.1	3%	-3.7	-2.6	-8	9	1
COc1ccc(N2CCN(C(=O)c3cc(=O)c4cc(C)cc(C)c4o3)CC2)cc1
 : 2.6	7%	0.3	0.5	-6	-2	6
O=C(CN1C(=O)c2cccc3cccc1c23)Nc1ccc2c(c1)OCO2
 : 1.0	22%	8.7	-1.7	-13	15	-2
O=C(Nc1nc2ccccc2s1)c1ccccc1
 : -0.8	?	-0.5	4.5	-7	0	-4
CC(=O)Nc1ccc(S(=O)(=O)NCCC(=O)OCCN2C(=O)c3ccccc3C2=O)cc1
 : 4.9	-7%&-3%	2.9	-0.8	-27	-4	-9
COc1ccc(-c2nc3c(c(SCC(=O)Nc4cccc(O)c4)n2)Cc2c(CO)cnc(C)c2O3)cc1
 : -16	15%	2.9	0.5	28	16	-8
CCOC(=O)c1cc2c(nc1C)-c1cc(Cl)cc(Cl)c1OC2O (stereo not given)
 : 3.2	-3%	·	-0.1	·	-2	20
O=c1c2cc(-c3ccccc3)sc2ncn1/N=C/c1ccco1
 : -2.5	14%	0.7	-1.3	-1	-8	-3
CCN1C(=O)C2C(c3cccc(F)c3)NC(C)(C(=O)OC)C2C1=O (stereo not given)
 : -1.7	0%	1.5	0.7	-8	-4	·
COC(=O)[C@@]12CCCCN1[C@H](c1ccc(-c3ccc(C(C)=O)cc3)c(OC)c1)[C@@H]1C(=O)N(C)C(=O)[C@@H]12
 : -3.4	·	3.7	-8.5	4	9	1
COc1ccc(C(=O)CSc2ncnc3nc[nH]c23)cc1
 : 0.3	-9%	0.6	0.2	1	-5	18
CCOc1ccc(OCC)c(S(=O)(=O)n2cc(C)nc2CC)c1
 : 4.0	7%	-4.0	-2.7	-20	1	-8
COc1ccc(CC(=O)Nc2cccc(C(C)=O)c2)cc1S(=O)(=O)N1CCOCC1
 : 0.1	-12%	·	-5.0	·	9	·
C/C(CCc1ccc2c(c1)OCO2)=N\N=C1\NC(=O)CC(C(=O)Nc2ccccc2)S1 (stereo not given)
 : -2.2	3%	5.0	2.1	3	3	13
Cc1cc(C(F)(F)F)nc(NCc2cccnc2)n1
 : 0.6	15%	-1.1	0.0	-11	5	·
Cn1c(NC(=O)c2ccc(F)cc2)c(-c2ccccn2)c(=O)c2ccccc21
 : 4.9	-36%	-1.8	-0.7	-6	0	-1
CCOc1ccc(-c2[nH]nc3c2C(c2ccc(O)cc2)C(C#N)=C(N)O3)cc1 (stereo not given)
 : -4.5	15%	-1.4	-0.9	6	9	54
O=C(NCCOc1ccccc1)C1CCCN1C(=O)c1cccs1 (stereo not given)
 : -1.0	4%	3.7	-12	3	2	-2
CCc1nccn1S(=O)(=O)c1cc(C)c(OC)cc1C
 : -0.2	1%	-4.6	8.7	-14	0	-2
CN1C(C(=O)Nc2ccccn2)=C(O)c2sc(Cl)cc2S1(=O)=O
 : 2.8	·	0.5	-1.0	-11	0	5

Some of the entries so far, as labelled records.
SMILES: CCOC(=O)c1cc2c(nc1C)-c1cc(Cl)cc(Cl)c1OC2O (stereo not given)
- HNF4A DNA FP: 3.2
- Vif A3G: -3%
- RanGTP-Impb inh: ·
- LANA-H2B inh: -0.1
- Calb FLC: ·
- B2AR ag: -2
- ALR inh: 20
SMILES: COc1ccc(C(=O)CSc2ncnc3nc[nH]c23)cc1
- HNF4A DNA FP: 0.3
- Vif A3G: -9%
- RanGTP-Impb inh: 0.6
- LANA-H2B inh: 0.2
- Calb FLC: 1
- B2AR ag: -5
- ALR inh: 18
SMILES: COC(=O)[C@@]12CCCCN1[C@H](c1ccc(-c3ccc(C(C)=O)cc3)c(OC)c1)[C@@H]1C(=O)N(C)C(=O)[C@@H]12
- HNF4A DNA FP: -3.4
- Vif A3G: ·
- RanGTP-Impb inh: 3.7
- LANA-H2B inh: -8.5
- Calb FLC: 4
- B2AR ag: 9
- ALR inh: 1
SMILES: CCc1nccn1S(=O)(=O)c1cc(C)c(OC)cc1C
- HNF4A DNA FP: -0.2
- Vif A3G: 1%
- RanGTP-Impb inh: -4.6
- LANA-H2B inh: 8.7
- Calb FLC: -14
- B2AR ag: 0
- ALR inh: -2

Next records
Below each compound: HNF4A DNA FP	Vif A3G	RanGTP-Impb inh	LANA-H2B inh	Calb FLC	B2AR ag	ALR inh
C=CCOc1ccc(/C=C/C(=O)OCC(=O)NC(C)c2ccc(F)cc2)cc1 (stereo not given)
 : -0.3	-3%	7.0	3.8	·	-6	-7
CCC(=O)NCCc1cc2ccc(C)cc2[nH]c1=O
 : -1.5	-1%	·	-0.6	·	-13	-8
CCCCC(CC)C(=O)NCc1ccc(F)cc1 (stereo not given)
 : -1.7	-4%	?	-0.7	7	-4	-31
CCC1Oc2ccccc2N(CC(=O)NCC2CCCO2)C1=O (stereo not given)
 : 2.9	·	1.3	2.2	-6	3	·
CCOc1cc(C(=S)N2CCC(O)CC2)ccc1OS(=O)(=O)c1ccc(Br)cc1
 : -0.1	-3%	-3.5	3.4	6	0	-1
COC(=O)c1c(-c2cccnc2)csc1NC(=O)c1ccc2c(c1)OCO2
 : 14	-11%	3.0	5.8	10	-5	5
COc1ccc(C(=O)OCC(=O)N2CC(=O)Nc3ccccc32)cc1Br
 : -0.2	0%	·	·	·	4	·
Cc1ccc(-c2nnc(Nc3ccc(CC(N)=O)cc3)c3ccccc23)cc1S(N)(=O)=O
 : -2.0	-2%	4.3	-2.5	-2	-2	-21
COC(=O)c1ccc(Cc2ccc(C(=O)OC)o2)o1
 : -1.8	0%	-0.9	2.9	1	-5	1
O=S(=O)(NCCC1=CCCCC1)c1ccc(Br)cc1
 : -0.8	-5%	1.7	-4.6	-15	2	-3
COCC(=O)N1CCC(Oc2ccc(C(=O)N3CCCCCCC3)cc2)CC1
 : 0.1	-5%	-3.4	8.6	-8	-6	-5
CCOC(=O)C1CCCN(Cc2ccc(OC)c(OCc3ccccc3)c2)C1 (stereo not given)
 : 4.7	·	-1.3	-4.0	0	13	-7
O=CN1CCN(C(=O)c2ccc(Br)o2)CC1
 : 0.6	·	-0.8	2.5	8	-4	1
Cc1ccc2c(=O)cc(C(F)F)oc2c1
 : -1.1	-5%	-2.9	·	?	-15	·
CC1CCN(C(=O)Cn2nc(C(F)(F)F)c3c2CCCC3)CC1
 : 0.0	1%	·	2.0	19	-4	-1

Additional entries:
canonical_smiles	HNF4A DNA FP	Vif A3G	RanGTP-Impb inh	LANA-H2B inh	Calb FLC	B2AR ag	ALR inh
CCC1(CC)N([O-])C(C)=C(c2ccccc2)[N+]1=O	-1.1	-1%	3.2	1.7	1	2	4
COc1ncnc2c1N[C@@](C)(O)c1c(F)c(F)c(F)c(F)c1S2	5.9	?	?	-3.2	24	1	-2
CCC1C2CN(C(C)=O)CC=C2C(C#N)=C(N)C1(C#N)C#N (stereo not given)	-0.9	2%	0.2	1.8	-4	-6	13
CCOC(=O)CNc1ccc2c(c1)OCO2	-45	2.5µM*	1.9	10	-3	13	-26
CCn1c(O)c(C=C2N=c3ccccc3=N2)sc1=S	7.4	1%	-0.3	-1.0	0	9	-5
COc1ccc(C(=O)N2CCOC2CNC(=O)C(=O)NCc2ccc(F)cc2)cc1 (stereo not given)	3.7	·	-2.7	4.2	-2	1	-7
C=CCn1c(COc2ccc3c(c2)CCCC3)nnc1SCC(=O)Nc1cccc(SC)c1	-5.2	2%	0.6	7.8	-21	-4	2
CCc1nc(SCC(=O)Nc2nnc(CC)s2)c2c(C)c(C)sc2n1	-1.6	-1%	5.2	7.3	4	-14	-2
Cc1cc2c(o1)CC(C)(C)CC2=O	-1.0	-10%	-2.5	1.7	-2	6	-5
CC(=O)n1cc([C@@H]2C=C(C(=O)O)O[C@H](OCc3ccc(CO)cc3)C2)c2ccccc21	2.8	7%	4.8	-1.3	-4	0	8
Cc1ccc(N(C(=O)c2snc(C(N)=O)c2N)C(C(=O)NC2CCCC2)c2ccncc2)cc1 (stereo not given)	0.2	6%	-0.1	-1.9	20	-6	-9
COc1ccccc1-n1cnc2c(c1=O)c1nc3ccccc3nc1n2CCc1ccccc1	-3.0	?	1.7	3.9	27	-13	2
O=C(COC(=O)CCCOc1ccc(Cl)cc1Cl)NCc1ccccc1	2.5	12%	-2.0	-1.5	?	2	0
CC12CCC(C(=O)N(NC(=O)c3ccccc3Cl)C1=O)C2(C)C (stereo not given)	-0.5	1%	2.4	0.7	-3	-2	-15
O=C(Nc1cccc(NC(=O)c2c(F)cccc2F)n1)c1c(F)cccc1F	2.4	·	0.2	5.4	10	8	-16

No enrichment for hits; any-hit rate near 6.3%.
